TRPV1 PAM: human TRPV1 potentiation; Q8NER1; TRPV1-expressing cells, Fluo-8 calcium influx, capsaicin EC20 potentiation; host cell line not named in the record; control for the full effect not named in the record; potentiation, % at 8.33 µM; actives 0.02% (n = 320,000); AID 540277; active means potentiation above 80%; inconclusive means 30% to 80%; inactive means below 30%; further: 0% is about no effect
Target sequence (Q8NER1 whole entry, looked up): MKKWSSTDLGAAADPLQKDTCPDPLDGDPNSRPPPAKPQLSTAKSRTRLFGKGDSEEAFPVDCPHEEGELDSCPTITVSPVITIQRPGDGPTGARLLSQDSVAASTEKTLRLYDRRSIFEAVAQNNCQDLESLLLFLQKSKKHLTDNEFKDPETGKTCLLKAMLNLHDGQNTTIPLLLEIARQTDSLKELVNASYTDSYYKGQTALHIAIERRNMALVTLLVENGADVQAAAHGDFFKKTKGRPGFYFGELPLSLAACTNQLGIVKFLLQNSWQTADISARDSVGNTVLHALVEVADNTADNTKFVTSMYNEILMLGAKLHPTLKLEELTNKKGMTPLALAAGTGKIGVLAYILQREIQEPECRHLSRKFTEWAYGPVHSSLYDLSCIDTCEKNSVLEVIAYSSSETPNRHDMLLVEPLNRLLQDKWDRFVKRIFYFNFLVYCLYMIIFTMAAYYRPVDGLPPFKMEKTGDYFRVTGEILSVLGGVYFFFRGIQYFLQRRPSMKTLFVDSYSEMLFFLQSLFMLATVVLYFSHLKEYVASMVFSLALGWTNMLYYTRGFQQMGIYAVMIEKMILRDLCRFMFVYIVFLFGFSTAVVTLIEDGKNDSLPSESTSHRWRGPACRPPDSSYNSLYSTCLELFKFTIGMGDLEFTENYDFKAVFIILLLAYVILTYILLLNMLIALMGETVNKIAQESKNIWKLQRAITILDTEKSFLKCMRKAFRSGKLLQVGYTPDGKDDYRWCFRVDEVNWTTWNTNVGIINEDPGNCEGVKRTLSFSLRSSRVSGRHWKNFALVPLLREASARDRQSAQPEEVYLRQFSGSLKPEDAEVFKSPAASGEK
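Fluo-8 calcium influx in TRPV1-expressing cells, kinetic read (ex 480/em 520 nm). Compound added and read 3 min for agonist activity, followed by capsaicin at EC20 final and 2 min further read for enhancement.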
Sfp PPTase inh: inhibitors of Bacillus subtilis Sfp phosphopantetheinyl transferase; Q9F4F7; Potency, µM, for inactives: max response, negative = inhibition, actives largely listed as inhibitors; actives 3.5% (n = 310,000); Biochemical Sfp PPTase activity, qHTS; AID 1490; active means well fitted inhibition curve with a large enough effect; inconclusive means small, poorly fitted or top-dose-only effect, or another doubt; inactive means no such curve, though single readings can be large or run the other way;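 further: the enzyme is Sfp with the accession as filed and its product quenches rhodamine fluorescence; potency means the concentration at half of the fitted maximal effect; 0% = enzyme reaction without inhibitor and -100% = no enzyme wells; top concentration of the series not given in the record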
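With Hepes-Na pH 7.6 buffer containing 10 mM MgCl2, Sfp (15 nM) modified BHQ-2-YbbR (12.5 uM) using rhodamine-CoA (5 uM). Two reads 30 minutes apart at 525/598 nm yielded each well's rate.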
Six1-Eya2 blk: blocks human Six1 binding to Eya2; actives 0.56% (n = 360,000); activity change, % (no concentration beside the values); AlphaScreen GST-Six1/His-Eya2 binding, biochemical; hits give low values; control for the full effect not named in the record; in the data active = activity change below about -65%; inconclusive = about -30% to -65%; inactive = above about -30%; further: on the % scale 0 is the no-effect control and ±100 the full control effect; compound concentration not given in the record
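Compounds are tested against tagged Six1 and Eya2 proteins bridged by glutathione donor and nickel acceptor beads; after a one-hour incubation at 37 °C without light, AlphaScreen emission is recorded.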
D2 PAM: human D2 receptor positive allosteric modulation; AID 624464; actives 0.23% (n = 360,000); potentiation, % (test concentration not listed); P14416; DiscoveRx D2 beta-arrestin cells, luminescence, 90 min; 100% = 57 uM dopamine signal; active = potentiation of 50% or more; inconclusive = 30% to 50%; inactive = 30% or less;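 further: compound concentration not given in the record; tested on top of an EC20 dose of dopamine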
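PathHunter beta-arrestin assay in DiscoveRx D2 cells. Compounds were added with an EC20 of dopamine (50 nM final) for 90 min at 37 deg C. Luminescence was read 1 h after detection reagent, with 57 uM dopamine as the EC100 control.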
CtBP-E1A blk: CtBP/E1A binding inhibition | AlphaScreen GST-E1A/His-CtBP binding, 1536-well; hits give low values; control for the full effect not named in the record | activity change, % (concentration not given with the values) | actives 0.49% (n = 340,000); in the data active means activity change below about -65%; inconclusive means about -30% to -65%; inactive means above about -30%; further: on the % scale 0 is the no-effect control and ±100 the full control effect
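GST-E1A and His-tagged CtBP (125 nM each as 5X stock) were preincubated with pin-transferred compound for 2 h at 37 °C in the dark, then glutathione donor and nickel acceptor beads were added for 1 h before AlphaScreen reading.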
PINK1 expr mod: changes PINK1 expression | PINK1 immunofluorescence, high-content cytometry, 24 h | AID 624263 | actives 0.2% (n = 410,000) | Potency, µM (top dose mostly 76.6 µM), for inactives: at the highest dose activation (PINK1 increase), most hits filed as activators; active = well fitted activation curve with a large enough effect; inconclusive = small, poorly fitted or top-dose-only effect; inactive = flat fitted curve, though single readings scatter; cell line not stated here;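 further: potency means the concentration at half of the fitted maximal effect; % of control where 0% means no effect; nearly all actives have a fitted effect of over 65% in size; a mitochondrial uncoupler was the plate control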
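Readout is PINK1 immunofluorescence, quantified alongside mitochondrial, cell and nuclear markers by laser-scanning microplate cytometry. Cells from a stable line were exposed to compound titrations (5 concentrations) for 24 hours, with CCCP controls.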
D2 agonist: activates the human D2 dopamine receptor; P14416; DiscoveRx PathHunter D2 beta-arrestin, luminescence, 90 min; 100% = 57 uM dopamine signal; activation, % (no concentration beside the values); actives 0.084% (n = 360,000); in the data active = activation above about 40%; inconclusive = about 15% to 40%; inactive = below about 15%; further: compound concentration not given in the record; the text of the record calls up to 30% inactive
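Agonist mode: compounds alone added to overnight-plated D2 PathHunter cells for 90 min at 37 C, with 57 uM final dopamine (EC100) defining full response. Beta-arrestin recruitment detected by chemiluminescent reagent, read after 1 h at ambient temperature.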
* marks the source's active call; other numbers are inactive results; ? = inconclusive; . = no result given; & = joins results of further samples; [ ] = dose if it differs, or a comment.

Fields: Six1-Eya2 blk	D2 agonist	D2 PAM	Sfp PPTase inh	CtBP-E1A blk	PINK1 expr mod	TRPV1 PAM
- CN1C(=O)[C@@H]2[C@H](C1=O)[C@@H]1C(=O)Nc3ccccc3C(=O)N1[C@@H]2c1ccc(F)cc1
→ -0.3	-0.5	-4.3	4.6%	3.9	1.0%	6.2
- CCc1nc2ccc(C(=O)NCCN3CCNC3=O)cn2c1N(CCC(C)C)CCN(C)C
→ -2.8	-6.7	-1.9	.	0.7	2.5%	.
- COc1ccc(Cl)cc1S(=O)(=O)NC(C)C(=O)NCCCn1ccnc1 (stereo not drawn)
→ -1.2	-6.4	-5.7	.	-2.7	0.0%	-15.5
- COc1ccc(N2CCN(CC(O)COC(c3ccccc3)c3ccccc3)CC2)cc1 (stereo not drawn)
→ ?	-0.1	-13.2	2.2%	?	1.5%	0.8
- O=C(NCc1nc2ncc(Br)cc2[nH]1)c1ccccc1
→ -3.4	0.2	-16.2	?	-5.1	-2.0%	3.8
- Fc1ccc(CNc2nc(-c3ccccc3)nc3ccccc23)cc1
→ -3.3	-6.2	-3.9	25.0%	6.5	7.9%	0.6
- CCOc1ccc(C2/C(=C(\O)c3ccc4c(c3)OCCO4)C(=O)C(=O)N2CCCN2CCOCC2)cc1 (stereo not drawn)
→ 2.5	-2.6	-7.4	11.3%	0.9	-1.1%	?
- CCN(CC)C(=O)[C@H]1CC(CC(=O)NCCCOC)C(=O)N2CCc3c([nH]c4ccccc34)[C@]12C (stereo partly drawn)
→ 9.2	-2.0	.	.	-4.8	-0.1%	.
- COc1ccc2c(c1)O[C@H](c1ccc3c(c1)OCO3)[C@@H](O)C2=O
→ 1.0	-9.8	-4.7	2.0%&-5.2%	3.5	0.4%	0.5
- Cn1c(=O)n(C)c2cc(S(=O)(=O)NCc3ccccc3)ccc21
→ -0.5	-4.7	-6.2	20.6%	5.6	2.8%	-0.9
- O=C(Nc1ccccc1N1CCOCC1)c1ccc([N+](=O)[O-])s1
→ 3.2	3.7	28.2	.	?	2.1%	.
- O=C(COC(=O)/C=C/c1cccs1)Nc1ccccc1Cl
→ 5.5	1.3	-1.8	-10.8%	2.0	-1.3%	-13.4
- C=CCn1c(SCC(=O)N2CCN(CCO)CC2)nc2sc3c(c2c1=O)CCC3
→ -2.8	-2.3	-21.7	1.7%	1.3	-0.4%	-4.7
- CCC(C)c1ccc2oc(-c3ccc(NC(=O)Cn4cnc5c(=O)n(C)c(=O)n(C)c54)cc3)nc2c1 (stereo not drawn)
→ 6.6	1.5	2.6	8.5%	2.5	11.6%	?
- COc1ccccc1/C=C/C(=O)N1CCC(c2ccccc2)C1 (stereo not drawn)
→ 1.3	-0.4	-16.4	2.0%	0.6	2.3%	8.2
- Cc1noc(C)c1-c1ccc(C(=O)Nc2ccc(C(C)C)cc2)c2occc12
→ -10.4	1.1	0.8	.	-5.0	2.6%	.
- CC1(C)C(=O)Nc2ccccc2N1C(=O)CSc1nnc2ccccn12
→ 1.4	0.7	-7.6	22.0%	.	0.1%	17.6
- CCNCc1cc(Cl)c(OCc2ccccc2)c(OCC)c1
→ -1.6	-9.1	-9.1	-9.0%	-16.2	14.7%	8.4
- Cc1nnc(SCC(=O)N2CCOCC2)s1
→ 0.9	1.4	-3.9	1.7%	6.2	3.8%[38.3 µM]	?
- CCOc1cccc2sc(N(CCCN(C)C)C(=O)c3ccc(S(=O)(=O)N4CCCCCC4)cc3)nc12
→ -12.4	-3.0	-26.5	-14.6%	3.9	14.7%	4.0
- CCn1c(C)cc(/C=C2/SC(=S)NC2=O)c1C
→ 4.5	-0.4	-10.5	10.1%	-3.6	-0.7%	3.3
- N#CC1(c2ccc(NC(=O)c3ccccc3F)cc2)CCCC1
→ 29.6	-2.5	1.3	3.2%	0.2	-0.1%	-14.2
- COc1ccc(/C=N/NC(=O)c2ccc(CSc3nncn3C)cc2)cc1OC
→ -4.1	-3.4	5.5	9.7%	-12.8	1.9%	-11.2
- CC(=O)CC(C)(C)S(=O)(=O)c1ccc(Oc2ccc(S(=O)(=O)C(C)(C)CC(C)=O)cc2)cc1
→ 2.9	1.5	22.4	-3.3%	17.7	1.0%	-2.0
- Cc1c(C)n(CCC(=O)O)c2ccccc12
→ -1.5	-0.9	2.3	8.6%	3.6	-0.1%	-3.7
- CCc1nnc(NC(=O)/C=C/c2ccco2)s1
→ 2.9	-0.9	-1.3	-10.4%	11.8	1.3%	0.3
- Oc1ccc(/C=N/Nc2nc(-c3cccnc3)nc3ccccc23)c(O)c1
→ -66.7*	-2.3	5.6	-12.8%	-78.5*	-0.6%	7.9
- CN(C(=O)CC1C(=O)NCCN1C/C=C/c1ccccc1)C1CCOCC1 (stereo not drawn)
→ 2.3	-4.2	-3.9	14.6%	-25.4	-1.3%	-0.4
- Cn1c(NC(=O)Cc2cccc3ccccc23)cc(=O)n(C)c1=O
→ -9.9	2.5	1.0	-5.8%	-1.2	4.9%	-20.7
- CCCCCCCCNS(=O)(=O)CCNCc1ccccc1OC
→ 10.7	-0.3	-18.8	.	18.4	0.0%	.
- Cc1cc(C)nc(N2C(=O)CC(Cc3ccc(Cl)cc3)C2=O)n1 (stereo not drawn)
→ 3.7	-1.9	-5.7	2.5%	4.0	1.8%	-3.7
- O=C(CCc1nc2ccccc2[nH]1)NCc1ccc2c(c1)OCO2
→ 0.6	-4.0	-10.4	-3.6%	-4.9	0.3%	12.8
- COCCSc1ccccc1C(=O)NCc1cccnc1
→ -5.3	4.7	-21.3	?	-2.6	-0.7%	-5.5
- Cc1cccc(N2CCN(C(=O)CSc3ccc4c(c3)OCCO4)CC2)c1C
→ -24.7	-5.8	-1.3	.	-26.9	10.1%	-17.1
- Cc1ccc2[nH]c(CNC(=O)C3CCCCC3)cc2c1
→ 0.1	-1.1	-2.2	14.1%	-1.7	4.2%	-3.8
- COc1ccc([N+](=O)[O-])cc1NC(=O)C1(c2ccccc2)CCOCC1
→ -5.1	-2.8	1.3	-1.6%	5.9	3.4%	-31.6
- CCC(C)NC(=O)c1ccccc1-c1ccccc1C(=O)NC(C)CC (stereo not drawn)
→ 4.1	1.7	-0.5	7.3%	-17.9	-0.3%	-13.0
- CCOC(=O)c1cn(CC)c2cc(N3CCOCC3)c(F)cc2c1=O
→ 1.0	0.4	-6.8	-12.4%	4.1	-1.0%	-35.5
- COc1ccc(-n2ncc3c(NCC(C)C)ncnc32)cc1
→ 3.1	2.5	-3.8	8.0%	-0.6	-0.6%	-20.4
- O=C(NCCCNC(=O)c1cnccn1)c1ccc(Cl)cc1
→ 1.2	1.3	-0.7	12.0%	-8.8	6.3%	2.1

3 compounds from above, ordered by molar mass, descending:
Fields: Six1-Eya2 blk	D2 agonist	D2 PAM	Sfp PPTase inh	CtBP-E1A blk	PINK1 expr mod	TRPV1 PAM
- Cc1cccc(N2CCN(C(=O)CSc3ccc4c(c3)OCCO4)CC2)c1C
→ -24.7	-5.8	-1.3	.	-26.9	10.1%	-17.1
- Cn1c(NC(=O)Cc2cccc3ccccc23)cc(=O)n(C)c1=O
→ -9.9	2.5	1.0	-5.8%	-1.2	4.9%	-20.7
- Cc1c(C)n(CCC(=O)O)c2ccccc12
→ -1.5	-0.9	2.3	8.6%	3.6	-0.1%	-3.7

Later entries
Fields: Six1-Eya2 blk	D2 agonist	D2 PAM	Sfp PPTase inh	CtBP-E1A blk	PINK1 expr mod	TRPV1 PAM
- CCOC(=O)C1=C(Nc2ccc(C)cc2)CC(C)(O)C(C(=O)OCC)C1c1ccccc1 (stereo not drawn)
→ 3.6	-3.4	-3.7	23.3%	20.4	6.8%	-2.7
- COc1ccccc1N1CCN(C(=O)c2ccc(N(C)S(=O)(=O)c3ccccc3)cc2)CC1
→ -1.8	0.2	-7.9	9.2%	-4.5	-0.7%	12.3
- COc1cc(/C=C/C(=O)O)cc(OC)c1
→ 2.9	-1.7	-39.3	10.9%	0.0	-1.0%	8.0
- O=C(c1ccc2c(c1)OCO2)N1CCN(c2cccc(C(F)(F)F)c2)CC1
→ -2.1	-4.9	-2.8	8.1%	-12.0	7.5%	13.4
- CC(C)c1ccc(NC(=O)N2CCc3ccccc3C2)cc1
→ -1.2	-5.2	-9.1	9.0%	-16.1	1.8%	0.7
- Cc1ccc(S(=O)(=O)NNC(=O)C2CCN(Cc3ccccc3)CC2)cc1
→ 1.8	-2.3	-13.3	20.8%	1.7	0.2%	-2.9
- Brc1ccc(-n2cc(-c3ccccc3)c3c(NN4CCOCC4)ncnc32)cc1
→ -1.7	-1.3	-1.4	4.6%	-10.8	-6.1%	12.2
- COc1ccc(S(=O)(=O)NCCC(=O)NC2CCCCCCC2)cc1
→ -0.9	-3.5	-10.2	-1.6%	0.1	1.3%[38.3 µM]	4.2
- COCCCn1nnnc1SCC(=O)Nc1ccc2c(c1)OCCO2
→ -1.7	1.5	-9.9	2.0%	2.0	0.8%	-3.8
- Cc1ccc(-c2cc(-c3n[nH]c(=S)n3C)c3ccccc3n2)cc1
→ -5.2	-0.4	-5.6	?	-0.6	1.5%	-2.0
- COc1ccccc1CN1[C@@H](CC(C)=O)c2cc(C(F)(F)F)ccc2S1(=O)=O
→ 6.2	2.4	0.0	.	-0.5	-0.3%	.
- C/C(=N\Nc1ccc(Cl)c(C(=O)O)c1)c1ccc2c(c1)OCO2
→ -23.6	5.3	16.0	-15.4%	-3.1	-0.4%	-4.0
- O=C(Nc1nsc(-c2ccccc2)n1)c1ccncc1
→ -9.1	-2.9	-5.8	15.0%	-2.0	0.1%	-6.9
- CCOC(=O)[C@]12CCCC=C1N(Cc1ccc(Cl)cc1Cl)C(=O)[C@H](CC(=O)N1CCSCC1)C2
→ -2.1	.	.	.	-0.7	1.8%	.
- CC(=O)c1oc2ccccc2c1NC(=O)CN1CCCCC1
→ 1.8	-1.1	-21.6	0.7%	9.7	.	-8.6
- Cc1cc(OCC#N)nc(N)n1
→ 4.6	-7.2	-5.5	12.0%	.	1.1%	10.2

High-throughput results (PubChem)
